# Screening results from PubChem.
# BJeLR viability – MLPCN primary cell-based screen for lethality selective to Ras in HRASV12 cells; inhibition, % (test concentration not listed); AID 1554, 2009; 0.17% of 300,000 active; BJeLR (HRASV12) viability, CellTiter-Glo ATP luminescence, 48 h; reference of the scale not given here;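 active = replicate mean above 50%; inconclusive = above 50% but judged a plate artefact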;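 also: 50 nL library stock added to about 25 µL; numbers are from one replicate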
# ugtP null kill – growth inhibition of ugtP-null S. aureus, primary screen, RN4220 ugtP deletion, OD600 | 16 h; some inactives read as strong as hits | growth inhibition, % (concentration not given with the values) | 0.54% of 330,000 active | AID 1259309, 2017;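 active = z-score under -3 and OD600 up to 0.15 on both plates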;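 also: plate controls were untreated wells for no effect and antibiotic for full effect; wells of about 80 µL received 100 nL stock; the first replicate is given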
# Bead autofluor – flagged as autofluorescent in microsphere protease counterscreen; compound autofluorescence counterscreen, microsphere flow cytometry; active compounds read high; fluorescence intensity (test concentration not listed); 3.1% of 360,000 active;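 active = at least 3 SD above the mean of all compounds, about 16000 in these data; inconclusive = too few beads counted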;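 also: 100 nL of 1 mM stock went into each well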
# Mtb hypoxia rep – PubChem AID 1159583. M. tuberculosis hypoxia-regulated fluorescent reporter, fluorescence. fluorescence inhibition, % (no concentration beside the values). 0.1% of 300,000 active;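 active = 35 to 45% if threefold the growth effect, above 45% if 1.5-fold the growth effect; inactive = the rest, general growth blockers included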;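 also: wells of about 50 µL received 100 nL stock; 0% = vehicle wells and 100% = reference inhibitor wells; whole bacteria with a GFP reporter of the hypoxia response; strong numbers were not always called active; many hits fall short of the cut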
# PrP UTR inh – inhibition of PrP 5' UTR reporter expression; cell-based PrP 5' UTR mRNA reporter, plate reader; inhibition, % (no concentration beside the values); 0.35% of 340,000 active; AID 488862, 2010;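 active = every replicate at 50% or more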;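 also: 0 = median of the neutral control wells; tested in H4 reporter cells; numbers are from one replicate; inactives centre near -14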
# RN4220 kill – growth inhibition of S. aureus RN4220, primary screen, OD600. 16 h. inhibition, % (no concentration beside the values). 0.33% of 330,000 active. AID 1259311, 2017;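 active = z-score of -3 or lower and OD600 up to 0.18 on both plates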;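 also: plate controls were untreated cells for no effect and reference antibiotic for full effect; stock transfer was 100 nL into about 80 µL; one replicate is shown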
# Mtb hypoxia rep growth – second read-out of Mtb hypoxia rep, no call of its own (marks repeat the call); growth inhibition, %; measured here: M. tuberculosis growth (absorbance);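 0% = vehicle and 100% = reference antibiotic; read after six days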
# Numbers without * were called inactive; u = inconclusive; x = not tested or not shown; & = joins results of further samples.
SMILES,BJeLR viability,ugtP null kill,Bead autofluor,Mtb hypoxia rep,Mtb hypoxia rep growth,PrP UTR inh,RN4220 kill
CCN(CC)CCOC(=O)C1(c2ccc([N+](=O)[O-])cc2)CCCC1,x,-1.9,6276,2.6,1.2,-1.0,2.5
CCOC(=O)c1cc(C(C)=O)c(=O)[nH]c1C,-9.1,4.4,2384,8.9,5.3,-11.5,2.7
Cc1ccc(N(Cc2cc3ccc(C)cc3[nH]c2=O)C(=O)c2cccs2)cc1,-1.9,1.7,x,-8.4,-5.4,x,5.2
CC(=O)Oc1ccc(-c2cccc(C(=O)OCC(=O)N(C)c3ccccc3)c2)cc1,-5.6,-3.0,2528,-0.9,2.6,-15.3,-2.2
Cc1ccccc1N(CC(=O)N1CCc2ccccc2C1)S(C)(=O)=O,-8.9,6.4,3411,-4.7,1.5,-17.2,1.9
CC(C)C(=O)N1CCN(c2ccc(NC(=O)c3ccc(Br)o3)cc2)CC1,-1.0,4.3,4370,8.4,19.8,-21.1,4.5
CCOC(=O)c1c(N)nn(C(=O)C(C)C)c1-c1ccccc1,-2.4,18.7,3129,-7.9,0.0,-10.7,24.2
COc1ccc(C(=O)NC2CC2)cc1OC1CCN(Cc2cnn(C)c2C)CC1,-5.8,17.2,5946,19.2,-3.9,-15.5,2.8
Cc1ccc(-n2c(Cc3cccn3C)nnc2SCC(=O)Nc2ccc3c(c2)OCO3)cc1,2.1,1.1,24086*,10.2,7.3,-12.7,3.5
COC(=O)CN1C(=O)[C@H]2[C@@H](c3ccc(C)o3)N3C(=O)CN(Cc4ccc(-c5ccccc5)cc4)C(=O)[C@@]3(C)[C@H]2C1=O,1.1,x,3320,x,x,-10.6,x
CCOC(=O)/C(C#N)=C/NC(=O)NC(C)(C)C,0.4,2.8,10258,4.6,2.7,-28.1,6.1
Cc1ccc(CCNC(=O)C2CCCN(S(=O)(=O)c3c(C)noc3C=CN(C)C)C2)cc1 (configuration not stated),x,-6.7,x,4.1,4.9,x,5.6
COc1ccc(-c2cc(C(=O)OCC(=O)NC(C)C)c3ccccc3n2)cc1,4.0,4.3,4444,10.5,27.9,-5.1,2.4
CCCN(CCC)S(=O)(=O)c1cc(CN2C(=O)c3cccnc3C2=O)ccc1OC,-2.8,-2.3,3795,-15.7,11.8,-5.4,1.0
COc1ccc(/C=C/C(=O)OCC(=O)NC2CCS(=O)(=O)C2)cc1 (configuration not stated),x,9.7,4750,7.8,1.6,x,5.1
Cc1cc(C)cc(NC(=O)COC(=O)c2ccc(CN3CCCC3=O)cc2)c1,x,16.9,x,1.1,-1.3,0.9,0.8
CCNS(=O)(=O)c1ccc(NC(=O)Cn2nc(C(F)(F)F)cc2C)cc1,-6.2,-4.0,2854,4.2,4.9,-34.0,3.6
O=C(O)CCC(=O)Nc1ccc2c(c1)Cc1cc(NC(=O)CCC(=O)O)ccc1-2,5.0,-14.3,3762,10.6,7.1,-9.9,-0.9
CC1CCCCN1CC(=O)c1c(N)n(Cc2ccccc2)c(=O)n(C)c1=O (configuration not stated),x,2.6,8290,18.8,9.4,-5.4,4.8
COc1ccc(N2C(=O)CSC23C(=O)Nc2ccccc23)cc1 (configuration not stated),-5.3,3.9,3840,x,x,-10.0,3.5
COc1ccc(/C=N/Nc2snc(SC)c2C#N)cc1OC,-0.7,x,2592,x,x,-98.8,x
O=C(Cn1nnc2c(cnn2-c2ccccc2)c1=O)N1CCN(c2ccccc2F)CC1,3.2,10.5,4374,9.0,9.3,-16.9,4.8
CCCCNC(=O)CC1N=C2c3ccccc3N=C(SCC(=O)Nc3ccc(OC)cc3)N2C1=O (configuration not stated),-0.7,1.4,3523,2.6,7.3,-17.3,3.1
Cc1ccccc1CSc1n[nH]c(NS(=O)(=O)c2ccccc2)n1,-6.9,-20.2,4408,2.1,5.7,-7.0,5.0
O=C(NCc1ccccc1)c1ccc2c(=O)[nH]c3c(C(=O)NCC4CCCO4)sc(=S)n3c2c1 (configuration not stated),23.2,9.7,3266,19.7,10.3,-0.1,12.9
CC(C)CC1NC(=O)C(Cc2ccc(O)cc2)NC(=O)c2cc([N+](=O)[O-])cc(I)c2NCCCC(C(N)=O)NC1=O (configuration not stated),x,-1.8,x,12.3,8.5,x,2.3
CN1CCN(S(=O)(=O)c2ccc(NC(=O)c3cccs3)cc2)CC1,-0.5,-1.4,3269,3.3,1.4,-14.1,-10.8
COC(=O)c1ccc(NC(=O)CSc2nnc(-c3ccncc3)n2C)cc1,-3.7,2.2,u,-6.3,1.3,-13.7,0.6
COc1ccc(NC(=O)CN(Cc2ccccc2)Cc2ccccc2)cc1S(N)(=O)=O,-4.3,15.2,2493,6.5,-1.2,-0.8,0.0
Cc1ccc(C)n1-c1ccc(N2CCOCC2)c(Br)c1,9.4,0.1,3830,x,x,-6.4,4.1
Cc1cc(C)c(S(=O)(=O)N2CCCCC2C(=O)O)c(C)c1 (configuration not stated),-3.6,5.2,4041,0.5,11.2,-36.3,4.2
CCOC(=O)C1=C(c2ccccc2)NC(=O)N(C(C)=O)C1c1cccc([N+](=O)[O-])c1 (configuration not stated),3.8,-4.5,2125,3.9,14.5,-23.2,4.2
CC1CC(C)(C)CC2(C1)NC(=O)N(CC(=O)OCc1ccc(Br)cc1)C2=O (configuration not stated),x,6.5,x,4.1,2.0,-1.5,4.8
O=c1c2cc(N3CCOCC3)ccc2[nH]c(=S)n1Cc1cccc(Cl)c1,-11.1,-0.8,23197*,-8.0,-3.8,-22.1,-2.6
CC(C)C(=O)N1CCN(S(=O)(=O)c2ccc3ccccc3c2)CC1,1.1,3.0,3477,0.0,9.1,-18.5,-2.2
COCCn1c(SCc2c(F)cccc2Cl)nc2c1c(=O)[nH]c(=O)n2C,-15.0,-2.8,6040,15.2,3.9,-32.6,8.1

# A stretch of the results above:
SMILES,BJeLR viability,ugtP null kill,Bead autofluor,Mtb hypoxia rep,Mtb hypoxia rep growth,PrP UTR inh,RN4220 kill
CCOC(=O)C1=C(c2ccccc2)NC(=O)N(C(C)=O)C1c1cccc([N+](=O)[O-])c1 (configuration not stated),3.8,-4.5,2125,3.9,14.5,-23.2,4.2
CC1CC(C)(C)CC2(C1)NC(=O)N(CC(=O)OCc1ccc(Br)cc1)C2=O (configuration not stated),x,6.5,x,4.1,2.0,-1.5,4.8
O=c1c2cc(N3CCOCC3)ccc2[nH]c(=S)n1Cc1cccc(Cl)c1,-11.1,-0.8,23197*,-8.0,-3.8,-22.1,-2.6
CC(C)C(=O)N1CCN(S(=O)(=O)c2ccc3ccccc3c2)CC1,1.1,3.0,3477,0.0,9.1,-18.5,-2.2
COCCn1c(SCc2c(F)cccc2Cl)nc2c1c(=O)[nH]c(=O)n2C,-15.0,-2.8,6040,15.2,3.9,-32.6,8.1

# The listing continues:
SMILES,BJeLR viability,ugtP null kill,Bead autofluor,Mtb hypoxia rep,Mtb hypoxia rep growth,PrP UTR inh,RN4220 kill
CC(C)(C)CN1C(N)=NCC1Cc1ccc(O)cc1 (configuration not stated),x,-1.4&0.1,x,7.4&7.1,4.0&-8.9,x,6.7&6.8
CSc1sc(C(=O)NNC(=O)c2ccc(Cl)cc2)c2c1C=CCC2,-9.1,x,13819,x,x,-33.2,x
COc1ccc(C(=O)/C=C/Nc2cc(C)on2)c(OC)c1,4.9,0.8,5060,-8.4,0.3,-58.2,3.6
Cc1ccc(C(=O)c2ccccc2C(=O)Nc2ccccc2)cc1,-7.8,5.1,3799,2.7,0.0,-24.0,5.7
CC(NC(=O)C(NS(=O)(=O)c1cccc2nsnc12)C(C)C)c1ccccc1 (configuration not stated),-6.6,18.3,5829,3.4,6.1,-2.8,9.0
Cc1c(CC(=O)O)c(=O)oc2cc(OCc3ccc(F)cc3Cl)ccc12,-1.0,-0.9,3769,-6.4,8.0,-19.9,10.7
Cc1c(C2(O)CCCCC2)[nH]c2cnccc12,x,-0.4,4121,9.3,9.0,-5.0,4.6
Cc1ccc2nc(-c3ccncc3)cc(C(=O)Nc3ccc(F)cc3C)c2c1,0.2,3.0,5133,1.8,-1.1,-21.1,-7.8
C#CCOCCOCCOCCNc1nc(OC)nc(N2CCN(C(=O)C(CCCCN)n3cc(C(N)CO)nn3)CC2)n1 (configuration not stated),x,1.7,x,5.8,-5.9,x,4.1
CCCc1cc(=O)oc2cc(OCc3ccc(C(=O)O)o3)ccc12,7.6,-2.8,3872,19.8,11.8,-24.7,-2.3
CCCSCCCNC(=O)CC1Oc2ccccc2NC1=O (configuration not stated),5.6,2.3,5648,x,x,-10.4,-0.7
COc1ccccc1/C=N\N=C(\N)c1ccccn1,-3.0,x,2284,x,x,-72.7,x

# Molecules shown so far that have fluorine:
SMILES,BJeLR viability,ugtP null kill,Bead autofluor,Mtb hypoxia rep,Mtb hypoxia rep growth,PrP UTR inh,RN4220 kill
CCNS(=O)(=O)c1ccc(NC(=O)Cn2nc(C(F)(F)F)cc2C)cc1,-6.2,-4.0,2854,4.2,4.9,-34.0,3.6
O=C(Cn1nnc2c(cnn2-c2ccccc2)c1=O)N1CCN(c2ccccc2F)CC1,3.2,10.5,4374,9.0,9.3,-16.9,4.8
COCCn1c(SCc2c(F)cccc2Cl)nc2c1c(=O)[nH]c(=O)n2C,-15.0,-2.8,6040,15.2,3.9,-32.6,8.1
Cc1c(CC(=O)O)c(=O)oc2cc(OCc3ccc(F)cc3Cl)ccc12,-1.0,-0.9,3769,-6.4,8.0,-19.9,10.7
Cc1ccc2nc(-c3ccncc3)cc(C(=O)Nc3ccc(F)cc3C)c2c1,0.2,3.0,5133,1.8,-1.1,-21.1,-7.8

# Next part.
SMILES,BJeLR viability,ugtP null kill,Bead autofluor,Mtb hypoxia rep,Mtb hypoxia rep growth,PrP UTR inh,RN4220 kill
O=C1c2cccnc2C(=O)N1c1cccc([N+](=O)[O-])c1,-8.1,-3.2,3326,-3.4,1.3,x,1.0
O=C(NN=Cc1c(Cl)cccc1Cl)c1n[nH]c2c1CCCC2,x,-3.4,x,3.5,0.9,x,15.1
CCCCCn1c(=O)c(C(=O)NCc2ccco2)c(O)c2ccccc21,6.1,-1.8,3403,-8.1,7.1,7.6,79.7
O=C(NC(=S)Nc1ccccc1[N+](=O)[O-])c1ccccc1,0.9,1.3,5716,1.3,5.9,-37.2,1.9
CC(C)CC1NC2(C(=O)N(C)c3ccccc32)C2C(=O)N(C(C)C)C(=O)C12 (configuration not stated),2.0,8.7,5061,7.7,4.3,-37.4,3.0
C=CCn1c(SCc2ccccc2F)nc2cc(C(=O)O)ccc2c1=O,2.6,-0.7,5286,12.2,-1.3,-14.4,9.5
Cc1ccc(C)c(C(=O)CCC(=O)N2CCN(c3cccc(C(F)(F)F)c3)CC2)c1,x,-10.4,4140,3.3,0.6,-3.2,3.0
CC(=O)NCCOc1nc(N(C)C)nc(N2CCOCC2)n1,2.7,2.6,4833,9.1,6.7,-21.6,3.4
Cc1cc(=O)[nH]c(-c2ccccc2)n1,2.0,-0.2,3980,14.6,8.0,-81.2,1.1
CS(=O)(=O)Cc1cc(N2CCCC2)nc(-c2ccccc2)n1,9.4,-0.7,4502,-0.9,-3.3,-13.2,4.8
C/C(=N\NC(=O)CC(C)C)c1ccc(Cl)c(Cl)c1,8.2,x,4840,x,x,1.0,x
CC(C)N1CCN(Cc2cc3c(cc2Cl)OCO3)CC1CCO (configuration not stated),0.7,9.9,4327,-9.3,10.8,-16.4,7.1
O=C(Cc1c(F)cccc1Cl)Nc1cc(S(=O)(=O)N2CCOCC2)ccc1N1CCCC1,x,4.9,3767,-1.0,2.5,-3.4,11.5
O=C(NC1CCN(Cc2ccccc2)C1)c1cccc(S(=O)(=O)N2CCOCC2)c1 (configuration not stated),x,2.5,6525,-3.9,2.0,-3.8,0.5
COc1cccc(NC(=O)CN(C)C(=O)c2cn(-c3ccccc3)nc2-c2cccnc2)c1,x,3.9,5123,2.3,2.5,-3.9,-0.1
COCCNC(=O)c1cc2cc3ccc(OC)cc3nc2o1,-3.9,0.5,3842,-4.9,1.3,-40.0,1.9
CC(c1ccccc1F)n1cc(C(=O)NCCCc2nc3ccccc3[nH]2)nn1 (configuration not stated),-2.5,14.5,2508,-0.2,1.8,-14.1,6.9
